High-throughput results (PubChem BioAssay)
D2 agonist – Beta-Arrestin HTS for Positive Allosteric Modulators of the Human D2 Dopamine Receptor: Agonists | D(2) dopamine receptor (Homo sapiens), P14416 | DiscoveRx PathHunter D2 beta-arrestin, luminescence, 90 min; 100% = 57 uM dopamine signal | activation, % (concentration not given with the values) | 360,000 tested, 0.084% active; in the data active = activation above about 40%; inconclusive = about 15% to 40%; inactive = below about 15%; further: compound concentration not given in the record; the text of the record calls up to 30% inactive
Target sequence (P14416 whole entry, looked up): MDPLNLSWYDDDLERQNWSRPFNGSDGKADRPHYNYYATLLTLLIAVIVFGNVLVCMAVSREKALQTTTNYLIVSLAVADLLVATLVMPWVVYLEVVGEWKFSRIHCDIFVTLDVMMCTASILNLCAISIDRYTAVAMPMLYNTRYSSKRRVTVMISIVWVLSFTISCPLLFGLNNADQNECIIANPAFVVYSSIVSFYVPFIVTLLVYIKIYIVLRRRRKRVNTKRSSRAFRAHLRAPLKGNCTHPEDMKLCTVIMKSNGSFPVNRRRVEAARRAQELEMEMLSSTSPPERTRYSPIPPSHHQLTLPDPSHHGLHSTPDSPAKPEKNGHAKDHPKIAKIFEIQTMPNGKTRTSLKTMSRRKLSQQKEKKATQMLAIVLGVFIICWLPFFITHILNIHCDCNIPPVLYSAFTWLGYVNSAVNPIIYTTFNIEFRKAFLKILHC
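DiscoveRx PathHunter D2 beta-arrestin cells (2,100/well) attached overnight, then compound-stimulated 90 min at 37 C in HBSS/10 mM HEPES/0.1% Tween-20 buffer; beta-galactosidase complementation read by luminescence after 1 h at ambient temperature. Dopamine 57 uM final (EC100) as control.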
CtBP-E1A blk – qHTS Assay for Inhibitors of the CtBP/E1A Interaction; CtBP / adenovirus E1A interaction (AlphaScreen); AlphaScreen GST-E1A/His-CtBP binding, 1536-well; active compounds read low; control for the full effect not named in the record; activity change, % (concentration not given with the values); 340,000 tested, 0.49% active; AID 651724, 2012; in the data active means activity change below about -65%; inconclusive means about -30% to -65%; inactive means above about -30%; further: on the % scale 0 is the no-effect control and ±100 the full control effect
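Steps: dispense buffer (Tris pH 8.0, NaCl 300 mM, TCEP 1 mM, BSA, Tween 20); add 5X protein mix (GST-E1A, His-CtBP, 125 nM each); pin 23 nL compound; 2 h at 37 °C, dark; add 5X beads (50 ug/mL); 1 h; read.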
Six1-Eya2 inh – qHTS Assay for Inhibitors of the Six1/Eya2 Interaction | 360,000 tested, 0.56% active | AlphaScreen GST-Six1/His-Eya2 binding, biochemical; active compounds read low; control for the full effect not named in the record | Homeobox protein SIX1 (Homo sapiens) + Protein phosphatase EYA2 (Homo sapiens), … | activity change, % (concentration not given with the values) | AID 651725, 2012; in the data active = activity change below about -65%; inconclusive = about -30% to -65%; inactive = above about -30%; further: on the % scale 0 is the no-effect control and ±100 the full control effect
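GST-Six1 + His-Eya2 (5X stock: 250/500 nM); Tris pH 8.0, 300 mM NaCl, 0.05% BSA, 0.02% Tween 20; GSH donor/Ni acceptor beads; 1 h 37 °C dark; AlphaScreen readout.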
PINK1 modulator – A Quantitative High throughput Screen to Identify Chemical Modulators of PINK1 Expression; PINK1 immunofluorescence, high-content cytometry, 24 h; Potency, µM (series often up to 76.6 µM), for the others: at the highest dose activation (PINK1 increase), hits mostly activators; 410,000 tested, 0.2% active; active = well fitted activation curve with a large enough effect; inconclusive = small, poorly fitted or top-dose-only effect; inactive = flat fitted curve, though single readings scatter; cell line not stated here;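 further: potency means the concentration at half of the fitted maximal effect; % of control where 0% means no effect; nearly all actives have a fitted effect of over 65% in size; a mitochondrial uncoupler was the plate control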
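PINK1 protein level read as immunofluorescence by microplate cytometer in a fixed, stained stable cell line after 24 h exposure to five compound concentrations, with CCCP as control.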
D2 potentiator – Beta-Arrestin HTS for Positive Allosteric Modulators of the Human D2 Dopamine Receptor: Potentiators; 360,000 tested, 0.23% active; potentiation, % (no concentration beside the values); DiscoveRx D2 beta-arrestin cells, luminescence, 90 min; 100% = 57 uM dopamine signal; active = potentiation of 50% or more; inconclusive = 30% to 50%; inactive = 30% or less;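 further: compound concentration not given in the record; tested on top of an EC20 dose of dopamine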
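PathHunter beta-arrestin assay in DiscoveRx D2 cells. Compounds were added with an EC20 of dopamine (50 nM final) for 90 min at 37 deg C. Luminescence was read 1 h after detection reagent, with 57 uM dopamine as the EC100 control.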
TRPML1 agonist – qHTS for Agonists of the Human Mucolipin Transient Receptor Potential 1 (TRPML1). activation, % (concentration not given with the values). TRPML1-expressing cells, Ca2+ dye fluorescence, FDSS; host cell line not named in the record; reference of the full effect not given here. 410,000 tested, 0.12% active. Mucolipin-1 (Homo sapiens), Q9GZU1; in the data active = activation above about 50%; inconclusive = about 30% to 50%; inactive = below about 30%; further: 0% is about no effect; the text of the record puts the active cut at 80%
Target sequence (Q9GZU1 whole entry, looked up): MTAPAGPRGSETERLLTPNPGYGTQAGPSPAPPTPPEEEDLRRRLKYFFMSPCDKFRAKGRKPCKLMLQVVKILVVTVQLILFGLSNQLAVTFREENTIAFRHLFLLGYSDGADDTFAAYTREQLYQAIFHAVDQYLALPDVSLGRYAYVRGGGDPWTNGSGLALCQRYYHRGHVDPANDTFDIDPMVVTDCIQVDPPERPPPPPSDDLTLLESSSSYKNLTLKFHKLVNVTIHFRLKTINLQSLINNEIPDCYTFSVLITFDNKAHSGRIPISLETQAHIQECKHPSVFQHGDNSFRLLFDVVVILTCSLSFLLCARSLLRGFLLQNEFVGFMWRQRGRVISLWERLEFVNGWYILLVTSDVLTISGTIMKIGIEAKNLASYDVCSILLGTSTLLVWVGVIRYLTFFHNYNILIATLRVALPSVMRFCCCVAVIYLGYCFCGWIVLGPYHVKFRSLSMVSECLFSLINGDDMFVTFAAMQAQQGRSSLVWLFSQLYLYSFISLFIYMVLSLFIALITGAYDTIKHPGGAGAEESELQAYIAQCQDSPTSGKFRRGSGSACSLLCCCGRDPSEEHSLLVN
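Agonist activity was taken from a 110 s kinetic Ca2+ dye read on the FDSS after pinning compounds onto TRPML1-DL cells. The cells were seeded at 1,500/well with Tet inducer, incubated about 16 h, then dye-loaded at room temperature.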
* = called active by the depositor; ? = inconclusive; . = not tested or not shown; [ ] = another dose, or the depositor's remark.

SMILES	D2 agonist	CtBP-E1A blk	Six1-Eya2 inh	PINK1 modulator	D2 potentiator	TRPML1 agonist
CCN(CC)CCN(Cc1cc2cccc(C)c2[nH]c1=O)C(=S)Nc1ccccc1	-7.3	0.0	-3.7	1.7%	-13.0	0.8
Cc1ccc(NC(=O)c2nc[nH]c2C(=O)NCCCCCNC(=O)OC(C)(C)C)cc1	4.6	.	-16.8	6.5%	5.8	2.2
O=C(CSc1nnc(NC(=O)C2CC2)s1)NCc1cccs1	6.2	.	3.2	2.0%	3.4	1.8
COc1ccc2oc(C(=O)C3CC3)c(N)c2c1	0.6	-0.4	0.0	5.0%	10.3	0.0
CCCCN(CCCC)Cc1cc(=O)oc2cc(OC)c(Cl)cc12	12.9	7.1	8.6	7.8%	-7.1	-0.2
CNC[C@@H]1OCc2ccccc2-c2c(n(C)c3ccccc23)C(=O)N([C@H](C)CO)C[C@@H]1C	-9.3	-2.1	-3.3	1.5%	-3.6	-0.1
Cc1ccc(S(=O)(=O)N2CCCCCC2)cc1[N+](=O)[O-]	-2.3	-3.8	-5.7	1.4%	-9.7	2.0
N#Cc1cccc(NC(=O)COc2ccc(-n3ccnc3)cc2)c1	0.8	9.8	-0.4	1.5%	-7.5	1.2
COc1ccc(-c2c(-c3ccc(O)cc3O)n[nH]c2C(F)(F)F)cc1	5.5	-1.4	-8.5	1.8%	7.1	1.9
CCOC(=O)CN1C(=O)C(O)(CC(=O)c2ccco2)c2ccccc21 (configuration not stated)	-1.0	2.5	5.0	9.4%	1.6	-0.6
COc1cc([N+](=O)[O-])ccc1NC(=S)NNC(=O)c1ccc2c(c1)OCO2	-9.2	?	-18.7	2.8%	-21.2	0.3
COc1ccc(S(=O)(=O)N(C)CC(=O)NCc2ccccn2)cc1	-4.8	-12.6	20.4	-0.1%	-4.3	0.3
COCCOc1ccc(C(F)(F)F)cc1NC(=O)c1ccc(C(F)(F)F)cc1	0.2	0.5	9.6	-0.3%	-17.6	3.5
COc1ccc(S(=O)(=O)NNC(=O)c2ccc(-n3c(C)ccc3C)cc2)cc1	-4.3	2.4	-0.3	0.6%	-3.2	-0.6
S=C(Nc1ccccc1)N1CCC(C2CCN(C(=S)Nc3ccccc3)CC2)CC1	-3.1	8.9	8.1	1.8%	-8.1	-0.4
Cc1ccc(S(=O)(=O)CCC(=O)OCc2ccc(S(=O)(=O)C(C)C)cc2)cc1	0.9	.	7.7	1.8%	-2.9	0.5
CCOc1ccc(-n2c(SCC(=O)Nc3ccc(Br)cc3)nc3n[nH]c(C)c3c2=N)cc1	1.8	-6.4	1.9	0.8%	1.4	-0.8
O=C(CCNC(=O)c1ccco1)NCCc1ccc(Cl)cc1	-0.6	-1.3	11.7	-2.6%	-13.4	-0.5
CCOc1ccc(NC(=O)/C=C/c2ccc(OC)cc2)c([N+](=O)[O-])c1	2.1	6.4	-0.5	5.8%	-0.1	0.9
COCCNC(=O)CN1CCC(n2c(C)nc3cc(C(F)(F)F)ccc32)CC1	-2.0	-22.3	-10.2	0.5%	2.5	-0.4
O=C(NCc1cccnc1)C(=O)N/N=C/c1ccc([N+](=O)[O-])cc1	2.5	-7.6	0.7	2.9%	-11.2	-0.8
O=C(NCCc1ccccc1)C(=O)NCC1OCCN1S(=O)(=O)c1cc(F)ccc1F (configuration not stated)	-8.1	2.8	6.0	3.2%	-2.1	-0.6
CO[C@@H]1O[C@@H]2COC(c3ccccc3)O[C@@H]2[C@@H](OC)[C@@H]1O (some centres not stated)	-2.8	7.6	3.5	-1.6%	-10.2	-0.2
C=CCNC(=O)C1CCN(c2nc(C)cc(-c3ccccc3)n2)CC1	-0.6	-14.2	3.6	22.6%[38.3 µM]	-10.1	1.2
O=S(=O)(NCC(c1cccnc1)N1CCN(c2ccccc2)CC1)c1cc(F)ccc1F (configuration not stated)	8.5	11.8	-1.7	1.5%[38.3 µM]	4.8	0.2
O=C(NC(=S)NNC(=O)c1cnccn1)c1ccc(Cl)cc1	2.3	-95.4*	-91.8*	3.0%	2.3	0.6
CC1=C(C(=O)OC2CCCC2)C(c2coc3ccccc3c2=O)C2=C(CCCC2=O)N1 (configuration not stated)	-1.3	3.2	1.5	1.0%	-4.7	0.2
CC1=NN(C(=O)c2ccccc2Cl)C(O)(c2cccnc2)C1 (configuration not stated)	-1.0	2.8	4.4	-0.3%	-6.6	-0.3
Cc1cccc(C)c1NC(=O)N1CCCCCCC1	-4.7	-2.6	-18.6	2.4%	-3.5	0.1
O=C(OCC(=O)N1CCCc2ccccc21)c1cc(Cl)ccc1O	6.8	10.2	4.5	0.4%	-0.6	3.4
COc1cccc(CN2CCNC(=O)C2CC(=O)NCCOc2cccnc2)c1OC (configuration not stated)	-2.5	.	-5.2	-0.8%	0.4	-0.1
CSc1ccccc1C(=O)Nc1cccc(C(C)=O)c1	-1.3	6.6	1.6	-1.0%[38.3 µM]	-3.0	2.5
Cc1ccc(-c2nnc(SCC(=O)N/N=C/c3ccc(C)s3)n2-c2ccc(C)cc2)cc1	?	13.4	4.4	2.6%	29.1	3.8
O=C(c1ccc(Cl)c(Cl)c1)N1CCC(=O)N([C@H](COCc2ccc(Cl)cc2)Cc2ccccc2)CC1	.	-6.2	0.9	0.1%	.	1.8
Cc1ccc([C@@H]2CC(=O)[C@@H]3CN(S(=O)(=O)c4ccc(C)cc4)[C@H](c4ccc(Cl)cc4)C[C@@H]3N2S(=O)(=O)c2ccc(Cl)cc2)cc1	-9.6	2.4	1.6	1.3%	2.9	1.5
Cc1ccc2oc(-c3ccc(C)c(NC(=O)Cc4cccs4)c3)nc2c1	-4.6	0.4	4.8	7.0%	-13.2	4.4
C/C=C\C(=O)Nc1cccc(C2=NOC3(C2)C[C@H](C(N)=O)N(C(=O)[C@H]2CCC(=O)N2)C3)c1 (some centres not stated)	5.0	.	-4.8	3.0%	-3.6	-0.4
Cc1ccc(-n2cccn2)c(CN2CCCC(CNC(=O)c3ccc(F)cc3)C2)c1 (configuration not stated)	-1.0	6.4	6.6	0.6%	-12.4	0.9
CC1=C(C(=O)Nc2ccccn2)C(c2ccc(Br)cc2)n2ncnc2N1 (configuration not stated)	-2.2	9.7	0.9	-1.2%	6.1	-0.7
COc1cc(OC)cc(C(=O)Nc2cccc(NC(=O)c3cc(OC)cc(OC)c3)n2)c1	7.9	3.6	-5.6	9.7%	8.4	1.5

In the list so far, these have a CF3 group.
SMILES	D2 agonist	CtBP-E1A blk	Six1-Eya2 inh	PINK1 modulator	D2 potentiator	TRPML1 agonist
COc1ccc(-c2c(-c3ccc(O)cc3O)n[nH]c2C(F)(F)F)cc1	5.5	-1.4	-8.5	1.8%	7.1	1.9
COCCOc1ccc(C(F)(F)F)cc1NC(=O)c1ccc(C(F)(F)F)cc1	0.2	0.5	9.6	-0.3%	-17.6	3.5
COCCNC(=O)CN1CCC(n2c(C)nc3cc(C(F)(F)F)ccc32)CC1	-2.0	-22.3	-10.2	0.5%	2.5	-0.4

(further entries)
SMILES	D2 agonist	CtBP-E1A blk	Six1-Eya2 inh	PINK1 modulator	D2 potentiator	TRPML1 agonist
Cn1cnnc1SCc1ccc(C(=O)N=Nc2c(O)n(Cc3ccc(Cl)cc3)c3ccccc23)cc1	-4.2	-24.5	-25.6	3.4%	-13.8	-0.5
COCCN(C(=O)CCC(=O)Nc1nccs1)C(C(=O)NC(C)(C)C)c1ccc(C)cc1 (configuration not stated)	2.9	16.0	-0.2	0.9%	-7.4	-0.2
O=S(=O)(Nc1ccccc1)N1CCCCC1	-3.9	4.0	2.3	2.1%	-3.8	-0.4
COc1cc(NC(=O)C2CC(c3ccccc3O)=NO2)cc(OC)c1OC (configuration not stated)	-4.3	-4.7	-1.5	1.4%	-29.8	-0.2
CC(C)(C)NC(=O)COc1ccc(CNCc2cccs2)cc1	1.0	8.9	4.5	-0.5%[38.3 µM]	-9.7	1.3
Cc1ccc(NC(=S)N(CCCN2CCOCC2)Cc2ccccn2)cc1	-2.8	19.8	-9.8	0.9%	-2.2	0.6
CN(CC(=O)Nc1ccc(Cl)c(C(F)(F)F)c1)C(=O)c1ccc2c(c1)NC(=O)CS2	-1.5	-13.6	-3.2	-0.6%	-3.9	-0.3
COc1ccc(OC)c(NC(=O)CSc2nnc(-c3cnccn3)n2C)c1	-7.1	-2.6	-0.8	0.8%	-15.2	-0.8
Cc1ccc(C(=O)O)cc1NC(=O)CCc1ccccc1	0.7	5.8	6.1	-0.1%	1.2	-0.7
CCCNC(=O)CS(=O)(=O)c1ccccc1	-2.6	9.6	10.9	2.1%	-5.6	-0.5
CC(=O)NCCNc1nc2cc(-c3ccc(Cl)cc3C)sc2c(=O)n1C	-2.8	5.9	5.3	6.8%	-17.4	-0.6
COc1cc(C(=O)COC(=O)c2cc([N+](=O)[O-])ccc2N2CCOCC2)ccc1OC(F)F	-3.1	-1.4	-16.8	1.6%	1.7	-0.6
Cc1ccc(C(=O)Nc2ccnc(-c3ccncc3)n2)cc1	0.2	4.4	-7.3	5.7%	-10.8	2.2
O=C(Nc1ccccc1)Nc1cccc2nsnc12	0.0	1.4	21.6	2.6%	-5.3	-0.4
O=C(CSc1nc2ncc(Br)cc2[nH]1)c1cccc([N+](=O)[O-])c1	2.0	-6.7	-12.9	1.0%	-10.2	-0.9
COc1ccc(C2=C/C(=C/c3cccnc3)C(=O)O2)cc1OC	-1.9	1.0	2.3	-1.1%	-7.3	?
Cc1cc(C)nc(N/N=C/c2ccccc2OCc2ccc(Cl)cc2)n1	-4.2	0.0	23.1	5.0%	-31.7	2.9
CC1=C(C(=O)N2CCOCC2)CC(CC(=O)NCc2cccs2)C(=O)N1Cc1ccccc1 (configuration not stated)	-3.1	6.3	6.1	1.9%	-5.8	-0.5
O=S(=O)(CCSc1nc2ccccc2o1)c1nc2ccccc2s1	-4.0	5.0	1.5	8.8%[38.3 µM]	-15.9	2.5
Cc1nnc(Oc2ccccc2F)c2ccccc12	-1.6	4.4	-0.1	3.7%	-2.3	0.2
[O-]/[N+](=C\C=C\c1ccccc1)c1ccccc1	-2.6	.	-27.1	2.2%	2.5	0.6
CCOc1cccc(-c2nc(C(N)=O)c3[nH]c(=O)n(-c4cccc(Cl)c4)c3n2)c1O	-3.3	-2.2	-2.6	4.4%	-0.9	-0.1

With a hit mark in Six1-Eya2 inh, among the entries above:
smiles | D2 agonist | CtBP-E1A blk | Six1-Eya2 inh | PINK1 modulator | D2 potentiator
O=C(NC(=S)NNC(=O)c1cnccn1)c1ccc(Cl)cc1 | 2.3 | -95.4* | -91.8* | 3.0% | 2.3
